Methyltransferases: Primary Screen for Target Class Profiling of Small Molecule Inhibitors of Methyltransferases. AID 1745853, 2022. calls only at 40 µM. purified enzyme, MTase-Glo SAH luminescence; hits give low values. actives 3.9% (n = 25,000); active = -50% or lower on at least one of six enzymes; inconclusive = the cases between; inactive = as a rule above -30% on all six;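 note: enzymes were COMT GAMT GNMT HNMT NNMT and PNMT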
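Each enzyme was reacted with SAM and its substrate, with compounds tested once at 40 uM; SAH formed was read by MTase-Glo luminescence.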
Calls only; i = inactive; ? = inconclusive; + = active, no number. % is set by controls: 0 for no effect and ±100 for the full control effect.

SMILES	Methyltransferases
CCCCNC(=O)c1cccc(-c2cc(N3CCN(C)CC3)nc(N)n2)c1	+
COc1cc2oc(-c3ccc(O)cc3O)cc2c(OC)c1CC=C(C)C	i
CC(=O)N1CCC(C(=O)N2CCCC(c3nc4ncccc4[nH]3)C2)CC1 (centres undefined)	i
Cn1nc2n(C)c(=O)c3ccc(C(=O)NC4CCCCC4)cc3n2c1=O	i
Cc1ccc(C)c(N2C(=O)c3cc4occc4n3CC2(C)C(=O)NC2CCCCC2)c1 (centres undefined)	i
CC1(C)Cc2c(-c3ccccc3)c(-c3ccc(Cl)cc3)c(CC(=O)O)n2C1	?
CC(C)/C=C1/NC(=O)C(C(C)C)n2c1nc1c(O)cccc1c2=O (centres undefined)	i
COC(=O)Nc1ccc(-c2nc(N3CCOCC3)c3cnn(C4CCN(Cc5cccnc5)CC4)c3n2)cc1	?
Cc1noc2c(N3CCOCC3)cc(-c3cccnc3)nc12	i
O=C(NCC(=O)N1CCCCC1)Nc1ccc2nnsc2c1	?
O=C(c1ccc(Cl)cc1)N1CCCC2(CNc3ncccc3[S+](=O)([O-])N2)C1 (centres undefined)	i
CC(c1ccc(-c2ccc(CC(=O)O)cn2)cc1)N1CCCCC1 (centres undefined)	?
COCCNC(=O)c1ccc2c(=O)nc3c(-c4cccc(F)c4)n[nH]n3c2c1	i
Cc1ccc(CNS(=O)(=O)c2cc3c(cc2Cl)n(C)c(=O)n3C)cc1	i
COc1ccc(C(=O)Nc2ccc3oc(-c4ccc(F)cc4Cl)nc3c2)cc1	?

As a short view, part of the list above:
SMILES	Methyltransferases
CC(=O)N1CCC(C(=O)N2CCCC(c3nc4ncccc4[nH]3)C2)CC1 (centres undefined)	i
Cn1nc2n(C)c(=O)c3ccc(C(=O)NC4CCCCC4)cc3n2c1=O	i
Cc1ccc(C)c(N2C(=O)c3cc4occc4n3CC2(C)C(=O)NC2CCCCC2)c1 (centres undefined)	i
CC1(C)Cc2c(-c3ccccc3)c(-c3ccc(Cl)cc3)c(CC(=O)O)n2C1	?
CC(C)/C=C1/NC(=O)C(C(C)C)n2c1nc1c(O)cccc1c2=O (centres undefined)	i
COC(=O)Nc1ccc(-c2nc(N3CCOCC3)c3cnn(C4CCN(Cc5cccnc5)CC4)c3n2)cc1	?
Cc1noc2c(N3CCOCC3)cc(-c3cccnc3)nc12	i
O=C(NCC(=O)N1CCCCC1)Nc1ccc2nnsc2c1	?
O=C(c1ccc(Cl)cc1)N1CCCC2(CNc3ncccc3[S+](=O)([O-])N2)C1 (centres undefined)	i
CC(c1ccc(-c2ccc(CC(=O)O)cn2)cc1)N1CCCCC1 (centres undefined)	?
COCCNC(=O)c1ccc2c(=O)nc3c(-c4cccc(F)c4)n[nH]n3c2c1	i
Cc1ccc(CNS(=O)(=O)c2cc3c(cc2Cl)n(C)c(=O)n3C)cc1	i
COc1ccc(C(=O)Nc2ccc3oc(-c4ccc(F)cc4Cl)nc3c2)cc1	?

Other entries follow:
SMILES	Methyltransferases
Cc1ccc(Cl)cc1NC(=O)CSc1nnc2n(CCC(C)C)c(=O)c3ccccc3n12	i
CC(=O)Nc1c2n(c3ccc(F)cc13)CC(C)(C(=O)NC1CCCCC1)N(C1CCCCC1)C2=O (centres undefined)	i
C=CCNC(=O)N[C@H]1[C@H](O)[C@@H](N2CCC(Cc3ccccc3)CC2)[C@@H]2OC[C@H]1O2	i
CC(C)CCn1c(=O)c2ccc(C(=O)NCC(C)C)cc2n2c(=O)n(Cc3ccc(F)cc3)nc12	i
CCn1c(=O)n(CC)c2cc(S(=O)(=O)Nc3ccc(Br)c(C)c3)ccc21	i
CCOc1ccc(NC(=O)c2cc3n(n2)CC(C)(C(=O)NC2CCCC2)N(CC)C3=O)cc1 (centres undefined)	i
CC1(C(=O)NC2CCCCC2)Cn2c(cc3sccc32)C(=O)N1Cc1ccc2c(c1)OCO2 (centres undefined)	i
O=C(CCCc1nnc2n3nc(-c4ccccc4)nc3c3ccccc3n12)NCCCN1CCOCC1	i
COc1ccc(CN2C(=O)c3cc4oc(C)cc4n3CC2(C)C(=O)NC2CCCCCCC2)cc1 (centres undefined)	i
COC(=O)C1=COC(OC2OC(CO)C(O)C(O)C2O)C2C1CC(OC(=O)C(O)CC(=O)O)C2C (centres undefined)	+
CCC1c2ccc(C)n2CCN1C(=O)Nc1ccccc1Br (centres undefined)	i
Cc1noc(C)c1S(=O)(=O)N1C[C@@H](Oc2cccnc2)C[C@H]1C(N)=O	i
COc1c2c(c(C)c3c1C(=O)OC3)O[C@@]1(C)CCC3(C(C)(C)O)OC(=O)CC[C@]3(C)[C@H]1C2 (some centres undefined)	i
CCOC(=O)c1cc2n(n1)CC(C)(C(=O)NCc1ccccc1OC)N(c1ccccc1C)C2=O (centres undefined)	i
CCOc1ccc(CNC(=O)c2cc3n(n2)CC(C)(C(=O)NCc2ccc(F)cc2)N(C)C3=O)cc1 (centres undefined)	i
COCCCNC(=O)CCn1ccc2cc(S(=O)(=O)N3CCCCC3)ccc21	i
COc1ccccc1OCCNC(=O)c1ccc2c(c1)N(C)C1CCCCN1C2=O (centres undefined)	i
COCCN1CCC2(CCC1=O)CN(C(=O)NC(C)C)CCN2C (centres undefined)	i
CSc1ccc(CCN2C(=O)c3cc(-c4ccccc4)nn3CC2(C)C(=O)NCc2ccccc2)cc1 (centres undefined)	i
COC(=O)N[C@@H](C)CNc1nccc(-c2cn(C(C)C)nc2-c2cc(Cl)cc(NS(C)(=O)=O)c2F)n1	?
C[C@@H]1CN(C[C@@H]2CN(C(=O)c3ccsc3)C[C@@H]2CO)C[C@H](C)O1	i
CCCCc1ccc(CN2C[C@@H]3CC[C@H](C2)N(Cc2ccccn2)C3=O)s1	i
COCCN1CCC(N2CCN(C(=O)c3ccsc3)CC2)C1=O (centres undefined)	i
Cc1ccc(C)c(NC(=O)CNS(=O)(=O)c2ccc3[nH]c(=O)oc3c2)c1	i
C=C1C(=O)OC2/C=C(\COC(C)=O)CC/C=C(\C=O)CC(OC(=O)CC(C)C)C12 (centres undefined)	i
O=C(/C=C/c1ccc(O)cc1)OC[C@H]1O[C@@H](O/C(=C\c2ccccc2)C(=O)O)[C@H](O)[C@@H](O)[C@@H]1O	i
CC1CC(=O)[C@]2(O)C(C(=O)OCCc3ccc(O)cc3)=CO[C@@H](O[C@@H]3O[C@H](CO)[C@@H](O)[C@H](O)[C@H]3O)[C@H]12 (some centres undefined)	i
COc1cc(O)cc(C)c1C(=O)OC1C(CO)OC(n2ccc(=O)[nH]c2=O)C1OC(C)=O (centres undefined)	i
CC1CCCN(c2nc3c(S(=O)(=O)c4ccccc4)nnn3c3ccc(Cl)cc23)C1 (centres undefined)	i
CC1(C(=O)NCc2ccccc2)Cn2c(ccc2-c2ccco2)C(=O)N1Cc1ccccc1 (centres undefined)	i
COCCCNC(=O)C1(C)Cn2nc(-c3ccccc3)cc2C(=O)N1c1ccc(OC)cc1 (centres undefined)	i
O=Cc1ccc(-c2cc(C(F)(F)F)ccc2Cl)cc1	i
CCOC(=O)c1cc2n(n1)CC(C)(C(=O)NCCC(C)C)N(Cc1ccc(F)cc1)C2=O (centres undefined)	i
COCCNC(=O)CCCc1nnc2n3nc(-c4ccccc4)nc3c3ccccc3n12	i
CC(C)COC(=O)c1ccc2c(c1)C1C=CCC1C(c1ccc(F)cc1)N2 (centres undefined)	i
Cc1ccc(NC(=O)CSc2nnc3[nH]c(=O)c(C)nn23)cc1C	i
CC1(C)CN(C(=O)c2ccnc(-n3cnnc3)c2)CC1(C)O (centres undefined)	i
COCCNC(=O)c1ccc2oc(-c3ccncc3Cl)nc2c1	i
CC(=O)N1CCN([C@H]2CCN(C(=O)N(C)[C@H](C)c3cc(C(F)(F)F)cc(C(F)(F)F)c3)[C@@H](c3ccc(F)cc3C)C2)CC1	i
Cc1cccc(NC(=O)N2Cc3c(sc4c3CCCC4)-n3cccc3C2c2ccccc2)c1 (centres undefined)	i
O=C(CCCCc1ccc2ccccc2c1)C(F)(F)F	i
CCC(C)NC(=O)c1ccc2c(=O)n(CC(C)C)c3nn(CC(=O)Nc4ccccc4C)c(=O)n3c2c1 (centres undefined)	i
COc1cccc(CN2CC[C@@](O)(C3CC3)[C@H](C)C2)c1OC	i
CC(C)Cn1c(=O)c2ccc(C(=O)NC(C)C)cc2n2c(=O)n(CC(=O)NC(C)C)nc12	i
Cn1nc2n(Cc3ccccc3)c(=O)c3ccc(C(=O)NC4CCCCC4)cc3n2c1=O	i
CC1CCC(NC(=O)C2(C)Cn3c(ccc3-c3ccco3)C(=O)N2Cc2ccccc2Cl)CC1 (centres undefined)	i
COc1cccc(C(=O)N2CCN(c3ccnc4ccnn34)CC2)c1	i
Cn1c(=O)n(C)c2cc(S(=O)(=O)N3CCN(c4ccccn4)CC3)ccc21	i
O=C(NCc1ccccc1)c1ccc2c(=O)nc3c(-c4ccc(F)cc4)n[nH]n3c2c1	i
CCCN1C(=O)c2c(C(=O)NCCC3=CCCCC3)ncn2CC1(C)C(=O)NCc1ccc(F)cc1 (centres undefined)	i
COC(=O)C1=COC(OC2OC(CO)C(O)C(O)C2O)C2C(C)C(OC(=O)/C=C/c3ccc(O)cc3)C(O)C12 (centres undefined)	i
CC(=O)Nc1ccc(N2C(=O)c3ccc(-c4ccco4)n3CC2(C)C(=O)NCc2ccc(Cl)cc2)cc1 (centres undefined)	i
O=C(CC(c1ccccc1)c1ccccc1F)N1CCN(c2ccncc2)CC1 (centres undefined)	?
O=C1NC2(CCN(C(=O)Cc3ccccc3)C2)OCc2ccccc21 (centres undefined)	i
COCCCNC(=O)C1(C)Cn2nc(-c3ccccc3)cc2C(=O)N1Cc1ccccc1OC (centres undefined)	i
C[C@]12CC[C@@H]3c4ccc(OC(=O)c5ccccc5)cc4CC[C@H]3[C@@H]1CC[C@@H]2O	i
CN(C)C(=O)N1C[C@@H]2CN(C3CCOCC3)C[C@]2(C(=O)O)C1	i
O=C(Nc1cccc(C(F)(F)F)c1)N[C@H]1[C@H](O)[C@@H](Oc2ccccc2)[C@@H]2OC[C@H]1O2	i
CCC(C)NC(=O)Cn1nc2n(C)c(=O)c3ccc(C(=O)NC4CCCC4)cc3n2c1=O (centres undefined)	i
COc1ccc(/C=C\C(=O)O)c(O[C@@H]2O[C@H](CO)[C@@H](O)[C@H](O)[C@H]2O)c1	i
Next part:
SMILES	Methyltransferases
Cc1nc(C)c(C(=O)Nc2nn(Cc3ccccc3)c3cccc(OC(C)C)c23)o1	?
O=[S+]([O-])(c1ccccc1)N1CCCC2(CC(c3cccc(C(F)(F)F)c3)=NO2)C1 (centres undefined)	i
CCN(CC)CCCNC(=O)c1cc2n(n1)CC(C)(C(=O)NC1CCCCCC1)N(C)C2=O (centres undefined)	i
COc1cccc(-c2cccc(CN3CCCC3C(=O)N3CCCCC3)c2)c1 (centres undefined)	i
CCN(CC)c1nc2c(-c3ccc(F)cc3)nnn2c2ccccc12	i
O=C(Cn1ncc2ccccc2c1=O)N1CCCCC1CCn1cccn1 (centres undefined)	i
COC(=O)c1ncn2c1C(=O)N(CCc1ccccc1)C(C)(C(=O)NC1CCCC1)C2 (centres undefined)	i
C[C@@H]1O[C@@H](O[C@H]2[C@H](O[C@H]3[C@H](O[C@H]4CC[C@@]5(C)C(CC[C@]6(C)C5CC=C5[C@@H]7CC(C)(C(=O)O)C[C@@H](O)[C@]7(C)CC[C@]56C)[C@@]4(C)CO)O[C@H](C(=O)O)[C@@H](O)[C@@H]3O)O[C@H](CO)[C@H](O)[C@@H]2O)[C@H](O)[C@H](O)[C@H]1O (some centres undefined)	i
O=c1c2ccccc2n2c(=O)n(Cc3ccc(F)cc3Cl)nc2n1Cc1ccccc1	i
CC1(C(=O)NC2CCCCCC2)Cn2c(ccc2-c2ccco2)C(=O)N1CCCN1CCOCC1 (centres undefined)	i
COc1ccc([C@H](Cc2ccncc2)c2ccccc2)cc1OC1CCCC1	i
COC(=O)COc1ccc2c(=O)c(-c3ccc4c(c3)OCCO4)coc2c1	i
COc1ccc(C2(C(=O)N3CCCCCC3c3nc(C4CC4)no3)CC2)cc1 (centres undefined)	i
O=C(O)C1(c2ccc(-c3ccc(Cl)c(Cl)c3)c(F)c2)CC1	?
COCCCNC(=O)C1(C)Cn2nc(-c3ccccc3)cc2C(=O)N1c1cc(OC)cc(OC)c1 (centres undefined)	i
CCn1c(CO)nnc1C1CC(NC(=O)c2[nH]c3ccc(OC)cc3c2C)C1 (centres undefined)	i
Cn1nnc(-c2ccc(-c3ccc(N4C[C@H](CO)OC4=O)cc3F)cn2)n1	i
COc1ccc(CNC(=O)c2ccc3c(=O)nc4c(-c5ccc(Cl)cc5)n[nH]n4c3c2)cc1	i
Cc1ccc(C)c(N2CCN(C(=O)c3ccc(Nc4nc5ccccc5n5nnnc45)cc3)CC2)c1	i
O=S(=O)(N[C@H]1CO[C@H]2[C@@H]1OC[C@@H]2n1cc(CC2CCCCC2)nn1)c1cccs1	i
COCCOc1cnc2ccn([C@H](C)c3nnc4c(F)cc(-c5cnn(C)c5)cn34)c(=O)c2c1	i
CC1CCC(NC(=O)C2(C)Cn3c(ccc3-c3ccco3)C(=O)N2CC(C)c2ccccc2)CC1 (centres undefined)	i
CC(CNC(=O)c1cc2n(n1)CC(C)(C(=O)NC1CCCCCC1)N(C)C2=O)c1ccccc1 (centres undefined)	i
COc1ccccc1CN1C(=O)c2cc3ccccc3n2CC1(C)C(=O)NC1CCCCCC1 (centres undefined)	i
O=C(CCc1nnn2c1CN(C(=O)C1CCCC1)CC2)N1CCOCC1	i
COc1cc(C(=O)NCC2(N(C)C)CCCC2)cc(OC)c1OCc1ccccc1	i

From PubChem BioAssay

A portion of the library. The share of hits here may be higher or lower than overall.
